Rce1 inh: inhibitors of yeast Ras-converting enzyme. Q03530. yeast membranes, quenched prenylated peptide cleavage fluorescence. calls only. actives 0.27% (n = 290,000);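 active = fall in fluorescence gain of 50% or more versus controls, with final raw signal at or below 3038400; inconclusive = same 50% fall but final raw signal above 3038400; inactive = fall in fluorescence gain under 50%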;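 also: plate controls were neutral control wells for no effect and wells lacking membranes for full effect; tested at 10 µM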
Target sequence (Q03530 whole entry, looked up): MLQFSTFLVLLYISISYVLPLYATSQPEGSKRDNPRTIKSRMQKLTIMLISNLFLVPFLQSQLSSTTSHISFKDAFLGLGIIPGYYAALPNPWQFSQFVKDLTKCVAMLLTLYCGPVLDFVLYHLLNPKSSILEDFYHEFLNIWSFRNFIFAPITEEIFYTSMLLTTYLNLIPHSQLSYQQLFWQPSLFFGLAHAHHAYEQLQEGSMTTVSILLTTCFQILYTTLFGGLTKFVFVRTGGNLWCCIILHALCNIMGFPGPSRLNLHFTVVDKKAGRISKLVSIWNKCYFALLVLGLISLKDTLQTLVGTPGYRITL
eIF4H inh: inhibitors of RNA binding by human eIF4H; Q15056; eIF4H fluorescence polarization binding assay; inhibition, % at 35 µM; actives 0.94% (n = 290,000);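 active = 50% or more with normal probe brightness, or confirmed in later tests; inconclusive = above 50% with abnormal brightness, or retests that disagree; inactive = below 50% or failed in later tests; about a fifth of its hits are not listed in these tables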;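 also: calls also rest on retests at 20 µM and on dose response follow-up; 0% = protein and probe with vehicle and 100% = probe without protein; strong numbers were not always called active; many hits fall short of the cut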
HIV Env fusion: HIV envelope-mediated fusion inhibition. HeLa-JRFL Env/CEM21 cell fusion, luciferase. AID 651610. actives 1.1% (n = 360,000). inhibition, % at 12.3 µM;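 active = mean replicate inhibition score of at least 50 and every replicate individually at or above 50; inconclusive = only one of the two criteria met; inactive = mean below 50 and not all replicates reaching 50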;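 also: 0% = plate neutral controls and 100% = maraviroc near 300 nM; one replicate is shown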
PABP polyA inh: PABP-poly(A) binding inhibition; P11940; PABP-poly(A) RNA binding, fluorescence polarization; inhibition, % at 35 µM; actives 1% (n = 290,000);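 active = 50% or more with normal probe brightness, or confirmed in later tests; inconclusive = above 50% with abnormal brightness, or retests that disagree; inactive = below 50% or failed in later tests; about a fifth of its hits are not listed in these tables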;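 also: calls also rest on retests at 20 µM and on dose response follow-up; controls were probe without protein and protein plus probe with vehicle; some compounds called inactive have numbers as strong as hits; many hits fall short of the cut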
Target sequence (P11940 whole entry, looked up): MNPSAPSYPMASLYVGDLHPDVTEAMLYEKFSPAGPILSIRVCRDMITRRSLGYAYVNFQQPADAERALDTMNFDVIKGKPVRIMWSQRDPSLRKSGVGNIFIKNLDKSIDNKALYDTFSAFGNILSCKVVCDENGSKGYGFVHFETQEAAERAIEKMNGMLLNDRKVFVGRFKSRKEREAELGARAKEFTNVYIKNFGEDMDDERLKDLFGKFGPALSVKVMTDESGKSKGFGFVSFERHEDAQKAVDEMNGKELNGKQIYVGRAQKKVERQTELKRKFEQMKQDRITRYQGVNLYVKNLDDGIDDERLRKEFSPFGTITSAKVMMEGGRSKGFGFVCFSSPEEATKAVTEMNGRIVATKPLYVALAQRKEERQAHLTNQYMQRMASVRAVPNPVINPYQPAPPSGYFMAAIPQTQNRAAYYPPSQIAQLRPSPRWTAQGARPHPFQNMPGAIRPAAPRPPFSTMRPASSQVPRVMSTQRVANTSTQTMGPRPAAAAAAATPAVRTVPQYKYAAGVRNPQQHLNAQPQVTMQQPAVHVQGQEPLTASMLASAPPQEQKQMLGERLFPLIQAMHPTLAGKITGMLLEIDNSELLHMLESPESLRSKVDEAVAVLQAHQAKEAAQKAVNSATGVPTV
CSC inhib: cancer stem cell inhibition. cancer stem cell-like cells viability, luminescence. inhibition, % at 7.5 µM. actives 1.1% (n = 300,000). AID 2717;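 active = mean at 75% or more and at least half the replicates too; inconclusive = mean and replicates disagree; tested in HMLE shEcad cells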;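 also: 0% = median of negative and 100% = median of positive control wells; the first replicate is given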
Yeast UUG start: yeast start codon fidelity modulation; S. cerevisiae UUG-firefly luciferase reporter, luminescence/redox ratio; activity score, % at 18.7 µM; actives 0.13% (n = 350,000);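 active = replicate mean at a twofold rise or more, about +100% in these data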;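 also: firefly luciferase made from a UUG start codon reports start codon fidelity; reporter light over untreated wells divided by growth signal over untreated wells; some hits fall short of that in this replicate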
MT1-MMP act inh: inhibitors of human MT1-MMP activation. HT1080 RFP-PRO-GFP cells, GFP/RFP ratio fluorescence, overnight; percent of plate control window, DMSO zero. GFP/RFP ratio change, % at 20 µM. actives 0.061% (n = 360,000);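 active = GFP/RFP ratio change of at least 30% with cell ATP level not reduced by more than half and red fluorescence within 50% of control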; also: strong numbers were not always called active
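system = RFP-PRO-GFP reporter HT1080 cells | dosing = 20 µM single dose, 1% DMSO | timing = overnight cell settling, then overnight compound exposure, 37 °C, 5% CO2 | read-out basis = GFP/RFP fluorescence ratio | controls = DMSO and RFP-L50D-GFP cell wells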
eIF4H inh retest: recorded beside eIF4H inh, whose call it bears; inhibition, %; compound at 20 µM; confirmation average;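 mean of two retest wells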
PABP polyA inh retest: second read-out of PABP polyA inh, no call of its own (marks repeat the call); inhibition, %; compound at 20 µM; confirmation repeats;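 mean of two retest wells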
MT1-MMP act inh RFP: recorded beside MT1-MMP act inh, whose call it bears; RFP signal change, %; measured here: RFP expression control read;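 0 = vehicle wells; hits needed this value within 50% of zero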
Active calls of the source: *.

For CC(=O)O[C@@H]1[C@H]2[C@@H](C[C@@H](C)[C@@H]3C=CC(=O)[C@@]13C)OC(=O)[C@@H]2C the results were Rce1 inh inactive, eIF4H inh -7, HIV Env fusion -13, PABP polyA inh -8, CSC inhib -1, Yeast UUG start -3, MT1-MMP act inh -2 and MT1-MMP act inh RFP -6.
Screening Cc1cc(/C=C(/C#N)c2cccc(F)c2)c(C)n1-c1cccnc1 returned Rce1 inh inactive, eIF4H inh -5, PABP polyA inh -3, CSC inhib 2, Yeast UUG start -3, MT1-MMP act inh -4 and MT1-MMP act inh RFP 1.
`CN(CC(=O)Nc1ccc(F)c(F)c1F)C(=O)C1COc2ccccc2O1` (stereo not given) gave CSC inhib -9, Yeast UUG start -8, MT1-MMP act inh -1 and MT1-MMP act inh RFP -3.
`NC(=O)CSc1nnc(-c2cccnc2)n1Cc1ccccc1` gave Rce1 inh inactive, eIF4H inh -7, PABP polyA inh -14, CSC inhib -3, Yeast UUG start -15, MT1-MMP act inh -5 and MT1-MMP act inh RFP 6.
O=C(Cn1cc(C(F)(F)F)cc(Cl)c1=O)NCCc1ccc(Cl)cc1Cl was read as Rce1 inh inactive, eIF4H inh -4, HIV Env fusion -4, PABP polyA inh 5, CSC inhib -8, MT1-MMP act inh -1 and MT1-MMP act inh RFP -1.
Screening CCn1nc(NC(=O)c2ccncc2)c2cc3cccc(C)c3nc21 returned Rce1 inh inactive, eIF4H inh -1, PABP polyA inh -13, CSC inhib 4, Yeast UUG start -9, MT1-MMP act inh -15 and MT1-MMP act inh RFP -14.
Screening CC1CCN(C(=O)c2ccc3c(c2)OCCO3)CC1 returned eIF4H inh 8, PABP polyA inh -2, CSC inhib 2, Yeast UUG start -2, MT1-MMP act inh 5 and MT1-MMP act inh RFP 3.
For Cc1cccc(NC(=O)C2CCN(S(=O)(=O)c3ccc4c(c3)NC(=O)CO4)CC2)c1C the results were Rce1 inh inactive, eIF4H inh 2, HIV Env fusion 2, PABP polyA inh -8, CSC inhib -9, Yeast UUG start 10, MT1-MMP act inh -3 and MT1-MMP act inh RFP -1.
`COc1ccc(N2C(=O)C3ON(C4SC(=S)N(C)C4(C)C)C(c4ccc([N+](=O)[O-])cc4)C3C2=O)cc1` (stereo not given) gave Rce1 inh inactive, eIF4H inh -4, HIV Env fusion 5, PABP polyA inh -7, CSC inhib -16, MT1-MMP act inh 1 and MT1-MMP act inh RFP -1.
For COc1cccc(CNC(=O)CCNC(=O)Cn2ccc3ccccc3c2=O)c1 the results were Rce1 inh inactive, eIF4H inh 2, HIV Env fusion -33, PABP polyA inh -2, CSC inhib 4, Yeast UUG start -5, MT1-MMP act inh 4 and MT1-MMP act inh RFP 4.
For Cc1ccc2c(c1)N/C(=C(\C=C(/Cl)[N+](=O)[O-])[N+](=O)[O-])N2 the results were Rce1 inh inactive, eIF4H inh 8, PABP polyA inh 15 and CSC inhib -1.
COC(=O)CNC(=O)C1CCC(CNS(=O)(=O)c2cccc3nsnc23)CC1 (stereo not given) was read as Rce1 inh inactive, eIF4H inh 1, HIV Env fusion -5, PABP polyA inh 7, CSC inhib -9, Yeast UUG start -2, MT1-MMP act inh 0 and MT1-MMP act inh RFP 1.
Screening COc1ccc(S(=O)(=O)N2CCN(C(=O)COc3ccccc3)CC2)cc1 returned Rce1 inh inactive, eIF4H inh 2, HIV Env fusion 7, PABP polyA inh -6, CSC inhib -12, MT1-MMP act inh 0 and MT1-MMP act inh RFP 1.
`CC(C)(C)NC(=O)CCN(/N=C/c1ccccc1F)C1=NS(=O)(=O)c2ccccc21` gave Rce1 inh inactive, eIF4H inh 6, HIV Env fusion 8, PABP polyA inh 12, CSC inhib -11, MT1-MMP act inh 0 and MT1-MMP act inh RFP 2.
`CC1C(=O)OC(c2ccc(Br)cc2)C(C)(C)C1=O` (stereo not given) gave Rce1 inh inactive, eIF4H inh -4, HIV Env fusion -8, PABP polyA inh -5, CSC inhib -10, Yeast UUG start 1, MT1-MMP act inh 2 and MT1-MMP act inh RFP 4.
For COc1ccc(/C=N/S(=O)(=O)c2cccs2)cc1 the results were Rce1 inh inactive, eIF4H inh -2, HIV Env fusion -104, PABP polyA inh -9, CSC inhib 3, Yeast UUG start -15, MT1-MMP act inh 2 and MT1-MMP act inh RFP -2.
COc1cc(NS(=O)(=O)c2ccc3c(c2)C(C)(C)C(=O)N3C)cc(OC)c1 was read as Rce1 inh inactive, eIF4H inh 21, HIV Env fusion -19, PABP polyA inh 8, Yeast UUG start -1, MT1-MMP act inh 1 and MT1-MMP act inh RFP 5.
O=S(=O)(NC(=NCc1ccccc1)c1ccccc1)c1ccccc1 was read as Rce1 inh inactive, eIF4H inh 4, HIV Env fusion 10, PABP polyA inh -1, CSC inhib 1, Yeast UUG start -3, MT1-MMP act inh 2 and MT1-MMP act inh RFP 1.
`CCCN(CCC)c1ccc(/C=N/NC(=O)CN2CCOCC2)cc1` gave Rce1 inh inactive, eIF4H inh -9, PABP polyA inh -3, CSC inhib -4, Yeast UUG start 1, MT1-MMP act inh -4 and MT1-MMP act inh RFP -1.
Screening Cc1cc2ncn(S(=O)(=O)N(C)C)c2cc1C returned Rce1 inh inactive, eIF4H inh 2, HIV Env fusion 17, PABP polyA inh -2, CSC inhib -16, Yeast UUG start -14, MT1-MMP act inh 9 and MT1-MMP act inh RFP 7.
`CC(C)C(=O)N1CCC(CN=CC2=C(O)CC(C)(C)CC2=O)CC1` gave Rce1 inh inactive, eIF4H inh 4, PABP polyA inh 1, CSC inhib -9, Yeast UUG start -8, MT1-MMP act inh 5 and MT1-MMP act inh RFP 5.
CC(C)CNC(=O)[C@H](Cc1ccccc1)NC(=O)c1ccco1 was read as Rce1 inh inactive, eIF4H inh 2, PABP polyA inh 3, CSC inhib 4, Yeast UUG start -15, MT1-MMP act inh 8 and MT1-MMP act inh RFP 6.
Screening Cc1c(Cl)cccc1NC(=O)CNCc1ccccc1F returned Rce1 inh inactive, eIF4H inh -7, HIV Env fusion 0, PABP polyA inh 16, CSC inhib -3, MT1-MMP act inh 4 and MT1-MMP act inh RFP 7.
`COc1ccc(CNC(=O)Cn2cnc3c(SC)nc(N)nc32)cc1` gave HIV Env fusion -19, Yeast UUG start -6, MT1-MMP act inh 1 and MT1-MMP act inh RFP -15.
`CCc1ccc(-c2csc3ncn(Cc4ccc(C(=O)O)cc4)c(=O)c23)cc1` gave Rce1 inh inactive, eIF4H inh 5, HIV Env fusion 1, PABP polyA inh 27, CSC inhib -8, MT1-MMP act inh 1 and MT1-MMP act inh RFP 1.
For CCOc1ccc(NC(=O)CC2C(=O)N(CC)C(=S)N2CCNC(C)=O)cc1 (stereo not given) the results were Rce1 inh inactive, eIF4H inh 4, PABP polyA inh 5, CSC inhib 6, Yeast UUG start 6, MT1-MMP act inh -1 and MT1-MMP act inh RFP -1.
Clc1ccc(-c2nnc(-c3ccccc3)c(-c3ccccc3)n2)cc1 was read as Rce1 inh inactive, eIF4H inh -9, HIV Env fusion 20, PABP polyA inh 2, CSC inhib 85*, Yeast UUG start -21, MT1-MMP act inh -3 and MT1-MMP act inh RFP -10.
O=C(C1=COCCO1)N(Cc1nnc(-c2ccc(Cl)cc2)o1)C1CC1 was read as Rce1 inh inactive, HIV Env fusion 10, CSC inhib -5, MT1-MMP act inh 1 and MT1-MMP act inh RFP 0.
Cc1cc2nc3c(=O)n(C4CCCCC4)c(=O)[nH]c3nc2cc1N was read as eIF4H inh inconclusive, HIV Env fusion -31, PABP polyA inh -8, MT1-MMP act inh -135 and MT1-MMP act inh RFP -3.
`O=C(CCC(=O)Nc1ccccc1)N/N=C/c1ccccc1F` gave Rce1 inh inactive, eIF4H inh -5, HIV Env fusion -1, PABP polyA inh 0, CSC inhib -14, MT1-MMP act inh -2 and MT1-MMP act inh RFP 4.

Three compounds already listed, ordered by number of heavy atoms, smallest number first.
O=C(C1=COCCO1)N(Cc1nnc(-c2ccc(Cl)cc2)o1)C1CC1 was read as Rce1 inh inactive, HIV Env fusion 10, CSC inhib -5, MT1-MMP act inh 1 and MT1-MMP act inh RFP 0.
`CN(CC(=O)Nc1ccc(F)c(F)c1F)C(=O)C1COc2ccccc2O1` (stereo not given) gave CSC inhib -9, Yeast UUG start -8, MT1-MMP act inh -1 and MT1-MMP act inh RFP -3.
`CCc1ccc(-c2csc3ncn(Cc4ccc(C(=O)O)cc4)c(=O)c23)cc1` gave Rce1 inh inactive, eIF4H inh 5, HIV Env fusion 1, PABP polyA inh 27, CSC inhib -8, MT1-MMP act inh 1 and MT1-MMP act inh RFP 1.

The list goes on:
Screening Cc1ccc(-c2cn(S(=O)(=O)c3cccc4nsnc34)nc2N)cc1 returned Rce1 inh inactive, eIF4H inh -4, PABP polyA inh -4, CSC inhib -8, Yeast UUG start -25, MT1-MMP act inh 4 and MT1-MMP act inh RFP -4.
Screening CCOc1ccc(S(=O)(=O)NNC(=O)c2cc3ccccc3o2)cc1 returned Rce1 inh inactive, eIF4H inh 4, HIV Env fusion -9, PABP polyA inh 2, CSC inhib -7, Yeast UUG start 4, MT1-MMP act inh 3 and MT1-MMP act inh RFP -1.
`COc1ccc(CNc2cc(C)nc3ncnn23)c(OC)c1` gave Rce1 inh inactive, eIF4H inh -4, PABP polyA inh -5, CSC inhib -1, Yeast UUG start -24, MT1-MMP act inh 6 and MT1-MMP act inh RFP -14.
`C=CCn1c(N)cc(=O)nc1SCC(=O)Nc1ccccc1` gave Rce1 inh inactive, eIF4H inh -7, HIV Env fusion 3, PABP polyA inh -4, CSC inhib -7, Yeast UUG start -6, MT1-MMP act inh -2 and MT1-MMP act inh RFP 0.
For O=P(CCCCCCCCCP(=O)(c1ccccc1)c1ccccc1)(c1ccccc1)c1ccccc1 the results were Rce1 inh inactive, eIF4H inh -7, HIV Env fusion -232, PABP polyA inh 1, CSC inhib 38, Yeast UUG start 4, MT1-MMP act inh -21 and MT1-MMP act inh RFP -27.
Screening CS(=O)(=O)N(CCc1ccccc1)CC(=O)N1CCN(Cc2ccc3c(c2)OCO3)CC1 returned Rce1 inh inactive, eIF4H inh -6, HIV Env fusion 34, PABP polyA inh 9, Yeast UUG start -22, MT1-MMP act inh 2 and MT1-MMP act inh RFP -3.
Cc1cc(C)nc(NS(=O)(=O)c2ccc(NC(=O)c3ccc(O)cc3O)cc2)n1 was read as Rce1 inh inactive, eIF4H inh 0, HIV Env fusion -1, PABP polyA inh 86, CSC inhib -15, Yeast UUG start -17, MT1-MMP act inh 1, eIF4H inh retest 4, PABP polyA inh retest 12 and MT1-MMP act inh RFP 2.
For CC1(C(=O)NS(=O)(=O)c2ccccc2OC(F)(F)F)CCN1C(=O)Cc1ccccc1 (stereo not given) the results were HIV Env fusion 1, Yeast UUG start -32, MT1-MMP act inh -3 and MT1-MMP act inh RFP 4.
OCCNc1nc(Nc2ccccc2O)nc(N2CCCC2)n1 was read as Rce1 inh inactive, HIV Env fusion -11, CSC inhib 2, Yeast UUG start 5, MT1-MMP act inh 13 and MT1-MMP act inh RFP 0.

Two neighbouring entries already listed:
Screening Cc1ccc(-c2cn(S(=O)(=O)c3cccc4nsnc34)nc2N)cc1 returned Rce1 inh inactive, eIF4H inh -4, PABP polyA inh -4, CSC inhib -8, Yeast UUG start -25, MT1-MMP act inh 4 and MT1-MMP act inh RFP -4.
Screening CCOc1ccc(S(=O)(=O)NNC(=O)c2cc3ccccc3o2)cc1 returned Rce1 inh inactive, eIF4H inh 4, HIV Env fusion -9, PABP polyA inh 2, CSC inhib -7, Yeast UUG start 4, MT1-MMP act inh 3 and MT1-MMP act inh RFP -1.
